From PubChem BioAssay
Kir21 inh: inhibitors of mouse Kir2.1 inward-rectifier potassium channel; P35561; HEK293-Kir2.1, FluxOR thallium flux fluorescence; active compounds read low; B-score at 10 µM; actives 0.85% (n = 310,000); AID 1672;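 active means fluorescence ratio B-score at or below minus 3 SD of library scores, with starting-brightness B-score within 2 SD, cut at about -4.2 in these data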;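 further: channel flux triggered by added potassium and thallium sulfate stimulus; B-score of peak minus minimum fluorescence over baseline after thallium stimulus; more negative B-score means stronger Kir2.1 block with less thallium influx; some compounds called inactive have numbers as strong as hits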
Target sequence (P35561 whole entry, looked up): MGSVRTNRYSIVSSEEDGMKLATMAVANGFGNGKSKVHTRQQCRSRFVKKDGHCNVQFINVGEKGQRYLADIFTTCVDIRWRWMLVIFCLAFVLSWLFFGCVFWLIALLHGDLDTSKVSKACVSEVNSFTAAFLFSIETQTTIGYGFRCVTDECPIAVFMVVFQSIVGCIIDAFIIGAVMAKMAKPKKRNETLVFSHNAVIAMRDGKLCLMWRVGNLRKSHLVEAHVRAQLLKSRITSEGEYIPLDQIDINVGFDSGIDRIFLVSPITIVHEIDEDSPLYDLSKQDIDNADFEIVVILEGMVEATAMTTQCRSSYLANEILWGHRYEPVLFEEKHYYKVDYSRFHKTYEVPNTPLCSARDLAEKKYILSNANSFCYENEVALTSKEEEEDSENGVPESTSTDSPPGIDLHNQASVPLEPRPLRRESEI
CHT block: human CHT choline transport inhibition. Q9GZV3. CHT-expressing cells, membrane potential dye, choline response; active compounds read low. B-score at 10 µM. actives 0.86% (n = 310,000). AID 488975;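 active means B-score over 3 SD under the library average, and starting fluorescence ratio not unusually high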;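 further: choline stimulus applied at its EC90 after an EC20 pre-addition; B-score computed on integrated fluorescence ratio after choline addition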
Target sequence (Q9GZV3 whole entry, looked up): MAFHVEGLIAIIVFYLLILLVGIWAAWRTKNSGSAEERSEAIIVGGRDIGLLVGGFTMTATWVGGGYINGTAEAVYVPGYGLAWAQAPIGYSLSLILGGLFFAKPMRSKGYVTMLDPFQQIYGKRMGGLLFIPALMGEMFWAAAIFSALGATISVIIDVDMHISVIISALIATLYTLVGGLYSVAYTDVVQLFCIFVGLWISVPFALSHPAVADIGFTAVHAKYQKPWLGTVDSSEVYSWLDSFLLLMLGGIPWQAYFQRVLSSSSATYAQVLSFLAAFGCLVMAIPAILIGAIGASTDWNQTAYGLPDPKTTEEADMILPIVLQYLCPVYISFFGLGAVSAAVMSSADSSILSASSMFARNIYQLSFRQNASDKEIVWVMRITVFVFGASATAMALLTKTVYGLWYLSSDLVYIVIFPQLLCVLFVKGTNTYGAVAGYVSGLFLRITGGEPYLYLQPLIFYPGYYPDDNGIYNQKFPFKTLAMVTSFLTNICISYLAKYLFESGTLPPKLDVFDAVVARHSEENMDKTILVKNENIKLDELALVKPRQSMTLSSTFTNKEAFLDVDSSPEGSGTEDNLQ
Starred values were filed as active, the others as inactive; i = inactive; . = no result given; & = joins results of further samples. This is a subset, and most or all hits are left out here.

Kir21 inh | CHT block | mol
1.3 | i | CCN(CC)S(=O)(=O)c1ccc(C(=O)NNC(=O)c2cccs2)cc1
-0.14 | i | CC(C)C(=O)NC(=O)[C@@H]1CCCN1C(=O)/C=C/c1ccccc1
-0.01 | i | CCN1CCCC1CNS(=O)(=O)c1c(C)cc(C)cc1C (centres undefined)
0.04 | i | Cn1ccsc1=NC(=O)c1ccc(S(C)(=O)=O)cc1
0.86 | i | CCn1c(SCC(=O)Nc2ccc(OC)c(OC)c2)nnc1-c1cnccn1
-1.4 | i | COC(=O)[C@@]1(Cc2ccc(F)cc2)[C@H]2c3cc(C(=O)N(C)C)n(CCc4ccc(OC)c(Br)c4)c3C[C@H]2CN1C(=O)c1ccccc1
-2.2 | i | Cc1ccc(OCCC(=O)OCC(=O)c2c(N)n(C)c(=O)n(C)c2=O)cc1
0.68 | i | Cc1ccsc1/C=C(\C#N)C(=O)NC1CCS(=O)(=O)C1 (centres undefined)
-1.3 | i | CN(CC(=O)Nc1cccc(F)c1)C(=O)c1ccccc1OCC(=O)Nc1cccc(C(F)(F)F)c1
1.6 | i | CCSc1nnc(NC(=O)CN(C)S(=O)(=O)c2ccc(F)cc2)s1
-2 | i | Fc1ccc(CSc2ncnc3scc(-c4ccccc4)c23)cc1
-0.34 | i | Cc1ccc(S(=O)(=O)c2nc(S(C)(=O)=O)sc2N2CCCC2)cc1
0.33 | i | CCOC(=O)CC(=O)Nc1nnc(C(C)C)s1
1.7 | i | CCCc1cc(=O)oc2c(C)c(OC(C)C(=O)NCC(O)c3ccccc3)ccc12 (centres undefined)
-0.08 | i | COc1cc(/C=C2\C(C)=C(C#N)c3nc(N)c(C#N)c(C)c32)ccc1OCC(=O)O
-1.1 | i | O=C(CN1C(=O)C2C3CCC(C3)C2C1=O)OCC(=O)c1ccccc1 (centres undefined)
0.09 | i | CNC(=O)C1CC(=O)N(CCc2ccc(OC)c(OC)c2)C(=Nc2ccc(F)cc2)S1 (centres undefined)
0 | i | O=C(Nc1ccccc1C(=O)O)c1ccc(NC(=O)C2CCCO2)cc1 (centres undefined)
0.52 | i | CNC(=O)COC(=O)c1ccccc1Oc1ccccc1
1.6 | i | CCCCCCCCCCCCN1[C@@H](CC(C)=O)c2cc(F)cc(F)c2S1(=O)=O
-0.11 | i | COc1ccc(N2CCN(Cc3cc(=O)oc4ccc(Cl)cc34)CC2)cc1
1.5 | i | O=C1OCc2nc3cc4c(cc3c(-c3ccc(F)cc3)c21)OCO4
0.08 | i | O=C(c1ccccc1)N1CCN(C(=O)c2ccccc2)C1c1ccccc1
-0.35 | i | N#CCSc1n[nH]c2nc3c(c(=O)n12)C1(CCCC1)Cc1ccccc1-3
-0.29 | . | Cc1ccc(C)c(/C(O)=C2\C(=O)C(=O)N(CCCN3CCOCC3)C2c2cccnc2)c1 (centres undefined)
-0.36 | i | O=C(/C=C\c1ccc2c(c1)OCO2)NC1(C(=O)Nc2ccc3c(c2)OCO3)CCCCC1
1.1 | i | CCc1ccc(NC(=O)c2onc(C)c2Cl)cc1
-1.6 | i | COc1ccccc1N1CCN(C2CCN(C(=O)c3ccc(F)cc3)CC2)CC1
1.2 | i | O=C(O)C1C2C=CC(C2)C1C(=O)Nc1ccc2c(c1)OCCO2 (centres undefined)
-0.07 | i | Cc1c(C)n(Cc2ccc(F)cc2)c2ccc(C(=O)NCCN3CCOCC3)cc12

The final four entries of the section above open the next one:
Kir21 inh | CHT block | mol
1.1 | i | CCc1ccc(NC(=O)c2onc(C)c2Cl)cc1
-1.6 | i | COc1ccccc1N1CCN(C2CCN(C(=O)c3ccc(F)cc3)CC2)CC1
1.2 | i | O=C(O)C1C2C=CC(C2)C1C(=O)Nc1ccc2c(c1)OCCO2 (centres undefined)
-0.07 | i | Cc1c(C)n(Cc2ccc(F)cc2)c2ccc(C(=O)NCCN3CCOCC3)cc12
-2.1 | i | O=C(Nc1ccc(Oc2cccnc2)cc1)C1CCN(Cc2cccc(Cl)c2)CC1
-1.1 | i | CCCCN(CC)Cc1c(C)[nH]c2c(ccc3ccccc32)c1=O
-0.24 | i | CCC(NC(=O)c1ccccc1NC(=O)c1ccco1)C(=O)NNC(=O)c1ccc(OC)cc1 (centres undefined)
-0.12 | i | CCSc1ncccc1-c1nc2ccccc2[nH]1
0.27 | i | CC(C)CCNC(=O)Nc1ccc2c(c1)N(C)C(=O)CS2
-0.24 | i | O=C(NCC(F)(F)F)c1nn(Cc2ccccc2)c(=O)c2ccccc12
0.03 | i | Cc1cc(C)c2nc(NC(=O)c3ccc(OCC4CCCO4)cc3)sc2c1 (centres undefined)
-1.5 | i | CSCCC(NC(=O)c1cc(CC(C)C)oc1C)C(=O)O (centres undefined)
0.74 | i | COc1ccc(OC)c(CN2CCN(C(=O)c3cccs3)CC2)c1
0 | i | C1CC1Cc1noc(CN2CCN(CC3CC3)CC2)n1
1.3 | i | O=C(CSc1ncc(C(F)(F)F)cc1Cl)N1CCN(S(=O)(=O)c2ccc3ccccc3c2)CC1
-0.06 | i | COC(=O)c1cccc(OC(N)=O)c1
-0.18 | i | Clc1ccc(-n2ncc3c(NCc4cccs4)ncnc32)cc1
-1.1 | i | CC(C)CCn1nnnc1CN1CCN(c2ccccc2)CC1
-0.1 | i | CCOCC(=O)Nc1nnc(C)s1
-2.3 | i | Cc1cc(C)cc(NS(=O)(=O)c2ccc3c(c2)C(C)(C)C(=O)N3C)c1
0 | i | Cc1ccc(-c2nnn(CC(=O)N(CC(=O)NC3CCCCC3)c3cnc4ccccc4c3)n2)o1
0.2 | i | N#Cc1ccc(COC(=O)CSc2nnc(N)s2)cc1
-0.5 | i | CCOC(=O)CSC1=Nc2ccccc2C2=NC(CC(=O)NCc3ccc(OC)cc3)C(=O)N12 (centres undefined)
-0.89 | i | O=C(CCCN1C(=O)c2ccccc2C1=O)Nc1ccccc1
1.2 | i | CC(SC1=NCCS1)C(=O)Nc1nnc(-c2ccc(Cl)cc2)s1 (centres undefined)
-0.02 | i | Cc1[nH]c2ccccc2c1-c1nc2ccccc2[nH]1
2 | i | CC(C)=C1C2CCC1C1C(=O)N(c3nc(-c4ccc(C(C)C)cc4)c(C)s3)C(=O)C21 (centres undefined)
-4 | i | CC(=O)n1cc(N(C(=O)CCl)c2ccc(C)cc2)c2ccccc21
-0.07 | i | O=C(NNC(=O)c1cnccn1)c1ccc(Cl)cc1
-0.39 | i | O=C(COc1cc2oc(=O)c3c(c2cc1Cl)CCC3)NCc1ccncc1
-0.02 | i | Cc1ccc(-n2nc3c(N4CCC(C(=O)N5CCN(C)CC5)CC4)nnc(C)c3c2C)cc1
-1.6 | i | CSc1nnc2ccc(-c3ccc(C)cc3)nn12
0.49 | i | COc1ccc(OC)c(S(=O)(=O)NCCc2cn3ccsc3n2)c1
0.87 | i | O=C(O)CSc1c(-c2ccccc2)[nH]c2ccccc12
0.8 | i | CSc1ccccc1OCc1cc(C(=O)N(C)Cc2nonc2C)no1
-0.51 | i | Oc1c(C(c2ccccc2)N2CCc3ccccc3C2)sc2ncnn12 (centres undefined)
-2.3 | i | OC(CNC1CCCC1)COc1ccc(F)cc1 (centres undefined)
0.04 | i | O=C(NN=C(Cc1ccccc1)Cc1ccccc1)C1CC1
-0.91 | i | Cc1ccc(C2CC(c3ccccc3)=NN2C(=O)CSc2nnc(-c3ccc(Cl)cc3)o2)o1 (centres undefined)
0.56 | i | N#CC1=C(N)Oc2n[nH]c(-c3cccs3)c2C1c1cccs1 (centres undefined)
-0.04 | i | CCCCn1c(N)c(N(CCC(C)C)C(=O)C(C)N2C(=O)c3ccccc3C2=O)c(=O)[nH]c1=O (centres undefined)
0.71 | i | CC(=O)c1sc(NC(=O)COc2c(C)cc(Cl)cc2C)nc1C
1.5 | i | COc1ccc(-c2csc(NC(=O)CN3C(=O)CCC3=O)n2)cc1OC
0.25 | i | CCc1n[nH]c(=S)n1/N=C/c1cccc2ccccc12

4 of the compounds above, field by field.
O=C(NN=C(Cc1ccccc1)Cc1ccccc1)C1CC1
  Kir21 inh: 0.04
  CHT block: i

Cc1ccc(C2CC(c3ccccc3)=NN2C(=O)CSc2nnc(-c3ccc(Cl)cc3)o2)o1 (centres undefined)
  Kir21 inh: -0.91
  CHT block: i

N#CC1=C(N)Oc2n[nH]c(-c3cccs3)c2C1c1cccs1 (centres undefined)
  Kir21 inh: 0.56
  CHT block: i

CCCCn1c(N)c(N(CCC(C)C)C(=O)C(C)N2C(=O)c3ccccc3C2=O)c(=O)[nH]c1=O (centres undefined)
  Kir21 inh: -0.04
  CHT block: i

Going on with the list.
Kir21 inh | CHT block | mol
2.5 | i | O=C(NCc1ccco1)c1ccc(Cn2c(=O)c3sccc3n(Cc3ccc(F)cc3)c2=O)cc1
-0.89 | i | CCCN(CCC)S(=O)(=O)c1ccc(NS(=O)(=O)c2ccc(F)cc2)cc1
0.09 | i | NNC(=O)c1ccccc1-n1cccc1
1.5 | i | COc1cc(/C=C/C(=O)c2ccccc2O)cc(OC)c1OC
0.62 | i | CC1CCc2c(sc3ncnc(N4CCOCC4)c23)C1 (centres undefined)
1.3 | i | Cc1ccc(NC(=O)C2C3C=CC4(CN(Cc5cccnc5)C(=O)C24)O3)cc1F (centres undefined)
0.33 | i | CC1CCN(C(=O)Cn2cnc3c2c(=O)n(C)c(=O)n3C)c2ccccc2S1 (centres undefined)
0.62 | i | COc1ccc(S(=O)(=O)Nc2nc3ccccc3nc2NCc2ccc3c(c2)OCO3)cc1
1.1 | i | Cn1c(Cn2nnc(-c3ccccc3)n2)nnc1SCc1ccccc1Cl
-2.3 | i | Cn1c(SCc2ccccc2Cl)nc(C(F)(F)F)cc1=O
-0.06 | i | O=C1CSC(c2cccnc2)N1Cc1ccc(Cl)cc1 (centres undefined)
-1.2 | i | CCCC(=O)Nc1cc(C)c(NC(=O)c2cccs2)cn1
-0.55 | i | Cc1ccc(NC(=O)c2sc3nc(N4CCOCC4)c4c(c3c2N)CC(C)(C)OC4)cc1
-16 | i | O=C1c2cccc3c(O)ccc(c23)C(=O)N1c1ccc(Cl)cc1
2 | i | O=C(COc1ccc(Br)cc1)NCc1ccccn1
0.06 | i | CCOC(=O)C/C(C)=N/NC(=O)C1CC1(c1ccccc1)c1ccccc1 (centres undefined)
-0.35 | . | Cc1ccc(C(=O)n2c(=S)nc3ccccn32)cc1
-2.3 | i | CCOc1ccc(C2C(C(=O)Nc3ccc(F)cc3)=C(C)Nc3nc(CCCO)nn32)cc1 (centres undefined)
0.77 | i | O=C(Cn1nnc(-c2ccccc2Cl)n1)N/N=C/c1ccc(-c2cccc(Cl)c2)o1
0.81 | i | CC(=O)c1cccc(NC(=O)N2CCCC2C(=O)NCc2ccccc2)c1 (centres undefined)
1 | i | CCc1ccc(OCC(=O)Nc2ccc(S(=O)(=O)Nc3cc(C)on3)cc2)c(Br)c1
-1.9 | i | O=C(NCCCN1CCOCC1)c1sc2cc([N+](=O)[O-])ccc2c1Cl
0.78 | i | CCCNC(=O)c1ccccc1NC(=O)c1ccccc1SC
0.09 | i | O=c1oc(-c2ccccc2)nc2ccsc12
-0.12 | i | CN(C)S(=O)(=O)c1ccc(-c2csnn2)s1
-0.83 | i | CCC(=O)Nc1nnc(/C=C/c2ccccc2)s1
3.3 | i | COc1ccc(N(C(C)C(=O)N2CCCC2)S(C)(=O)=O)cc1 (centres undefined)
-1.2 | i | Cc1cccc2cc(/C=C3\N=C(c4ccccc4)OC3=O)c(N3CCOCC3)nc12
0.07 | i | Fc1ccccc1NC(=S)Nc1cccnc1
-1.6 | i | COc1ccc(CNC(=O)c2ccc(Cl)c(NC3=NC4CS(=O)(=O)CC4S3)c2)cc1 (centres undefined)
3.6 | i | O=C(Cn1nnc(-c2ccc(CN3CCOCC3)cc2)n1)Nc1nc(-c2ccccc2)cs1
0.02 | i | Cn1ccnc1Sc1ccc(C(N)=O)cc1[N+](=O)[O-]
-0.89 | i | Cc1cc(NC(=O)C(C)SCC(=O)N(Cc2ccccc2)c2ccccc2)no1 (centres undefined)
0.85 | i | Cc1c(/C=N/NC(=O)c2cccnc2)c2ccccn2c1C(=O)c1ccc(F)cc1
0.71 | i | Cc1ccc(N2CC(O)Cn3c2nc2c3c(=O)n(C)c(=O)n2C)cc1 (centres undefined)
-0.38 | i | Nc1ccc(-n2nncc2-c2ccc(Cl)cc2)cc1
-0.06 | i | CC(C)(C)c1ccc(C(=O)NC(=S)NCc2cccnc2)cc1
0.57&-0.05 | i | C[C@]12CCC(=O)C[C@@H]1CC[C@@H]1[C@@H]2CC[C@]2(C)[C@@H](C(=O)COC(=O)CCC(=O)O)CC[C@@H]12
-0.24 | i | CC(=O)Nc1ccc([N+](=O)[O-])cn1
-0.27 | i | CCOC(=O)N1CCN(C(=O)c2ccccc2N(Cc2ccccc2)S(=O)(=O)c2ccc(OC)cc2)CC1
1.2 | i | CCCc1[nH]nc2c1C(c1c(C)nn(-c3ccccc3)c1Cl)C(C#N)=C(N)O2 (centres undefined)
-0.35 | i | CSc1nnc(C)c(=O)n1COC(=O)COc1ccc(Cl)cc1Cl
-0.37 | i | CCn1cc(C(=O)N[C@@H](C)C(=O)OC)c(=O)c2cc3c(cc21)OCO3
-0.19 | i | CCCCc1nnc(NC(=O)CCc2ccccc2)s1
0.98 | i | N=C1/C(=C\c2ccc(-c3cccc(Cl)c3)o2)C(=O)N=C2SC=C(c3ccccc3)N12
-1.9 | i | Nc1nc(CN2CCN(c3ccccc3F)CC2)nc(Nc2ccccc2)n1
0.15 | i | NCCCC[C@H](NC(=O)C1CCNCC1)c1nnc(CN)o1
-0.02 | i | C/C(=N\OCC(=O)Nc1ccc(OC(F)(F)F)cc1)c1ccc2c(c1)OCCO2

Complete entries, looked up by structure.
Profile of CCn1cc(C(=O)N[C@@H](C)C(=O)OC)c(=O)c2cc3c(cc21)OCO3 = Kir21 inh = -0.37; CHT block = i
Profile of CCCc1[nH]nc2c1C(c1c(C)nn(-c3ccccc3)c1Cl)C(C#N)=C(N)O2 (centres undefined) = Kir21 inh = 1.2; CHT block = i
